Prx2 Sm inh – Schistosoma mansoni Prx2 inhibition; Potency, µM; actives 0.07% (n = 65,000); S. mansoni Prx2 activity coupled to TGR/GSH (TGR is thioredoxin glutathione reductase), NADPH fluorescence loss, qHTS; some inactives read as strong as hits; active means full or partial inhibition curve with a strong effect at the top dose; inconclusive means weaker partial or single-point curve; inactive means no accepted curve; note: series up to 57 µM; many of its hits are not listed in these tables
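Enzyme mix: 100 uM NADPH, 25 nM TGR, 700 uM GSH, 50 nM Prx2 in 100 mM phosphate pH 7.4, 10 mM EDTA, 0.01% Tween-20. 15 min RT with compound; NADPH/GSH added, H2O2 starts reaction; NADPH fluorescence read 8 min.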
Anthrax LT inh – anthrax lethal toxin internalization inhibition. Cells, anthrax lethal toxin internalization, FRET ratio (460/530). Potency, µM (highest dose often 40 µM), for the others: at the highest dose activity change, negative = inhibition, usual class: inhibitors. actives 0.67% (n = 70,000); active = well fitted falling ratio curve with the 530 nm signal flat; inconclusive = other ratio curves, or a change in one channel alone; inactive = flat curves in the ratio and both channels; the % refers to the ratio; note: % is set by controls: 0 for no effect and ±100 for the full control effect; nearly all actives have a fitted effect of over 50% in size; tested in ME-180 cells; beta-lactamase reporter
Numbers without * were called inactive; ? = inconclusive; · = no result given; & = joins results of further samples; [ ] = remark or other dose. Potency is the fitted concentration of half-maximal effect. The list is partial; count on the stated rates, not on these rows.

Each structure is followed by: Prx2 Sm inh | Anthrax LT inh
COc1ccccc1N1CCN(C(=O)c2c(-c3c(Cl)cccc3Cl)noc2C)CC1
    >57 | -35%
Cn1c(=O)oc2cc(S(=O)(=O)Nc3ccc4c(c3)OCCO4)ccc21
    >57 | 2%
Cc1cccc(-c2nc3ccccc3c(=O)n2-n2cccc2)c1
    · | -5%
COC1=C(C)C(=O)c2c(c(COC(N)=O)c3n2C[C@@H]2[C@@H]3N2C)C1=O (some centres not stated)
    >57 | ?
Cc1ccccc1Nc1nc(N)nc(CSc2nnc3sc4ccccc4n23)n1
    >57 | -19%
Cc1nnc(SCc2ccon2)n1-c1ccccc1
    >57 | 4%
CC(=O)OC(Cn1nc(C)cc1C)c1ccccc1 (configuration not stated)
    >57 | ·
CCOC(=O)c1c(-c2ccc(C)o2)csc1N
    ? | 9%
COc1ccc(-c2cc(-c3cc(F)ccc3O)[nH]n2)cc1OC
    >57 | 10µM*
COc1ccc2nc(N)sc2c1
    · | -3%

Other records follow:
Each structure is followed by: Prx2 Sm inh | Anthrax LT inh
NC[C@@H]1O[C@H](C23CC4CC(CC(C4)C2)C3)Cc2c1ccc(O)c2O
    >57&>57 | ?
Cc1ccc(-c2c3c(=O)n(C)c(=O)n(C)c3c3c(C)cc(C)nn23)cc1
    >57 | -8%
Cc1c(NC(=O)c2c(F)c(F)c(F)c(F)c2F)c(=O)n(-c2ccccc2)n1C
    >57 | 27%
COc1ncc2nc(-c3cccs3)c(=O)n(C)c2n1
    >57 | ?
O=C(C1CCN(S(=O)(=O)c2ccc3c(c2)OCCO3)CC1)N1CCc2ccccc21
    >57 | -18%
O=C(CSc1nnc(CNC(=O)c2ccccc2F)o1)NCC1CCCO1 (configuration not stated)
    >57 | -3%
Cc1cc(=O)[nH]c(SCC(=O)N2CCC(C(N)=O)CC2)n1
    >57 | 9%
OCCOc1ccc(C2=NCCO2)cc1
    >57 | 6%
Cc1onc(-c2ccccc2Cl)c1C(=O)Nc1sc2c(c1C#N)CCC2
    >57 | -22%
CC1(c2ccc3noc(-c4ccccc4)c3c2)OCCO1
    >57 | -2%

Next entries:
Each structure is followed by: Prx2 Sm inh | Anthrax LT inh
O=C(Oc1ccc(OC(=O)c2ccncc2)cc1)c1ccncc1
    >57 | 4%
Cc1ccc(NC(=O)CC2NCCNC2=O)cc1 (configuration not stated)
    >57 | 6%
CCc1ccc2c(c1)c1nc(C)sc1n2CC
    >57 | ?
CCn1c(=O)c(=O)[nH]c2cc(C(=O)N3CCN(c4ccccc4F)CC3)ccc21
    >57 | 16%
c1ccc(CSc2nnc(-c3ccco3)n2Cc2ccccc2)cc1
    >57 | 10%
O=C(c1ccccc1-c1ccccc1)N1CCOCC1
    · | -3%
Cc1nc(N2CCN(C)CC2)c2c(C)c(C(=O)Nc3ccc(F)cc3)sc2n1
    >57 | -28%
COc1ccc2nccc(C(=O)O)c2c1
    >26 | -7%[3.58 µM]
Cn1c(C(=O)N2CCN(c3ncccn3)CC2)cc2c(=O)n(C)c3ccccc3c21
    >57 | -4%
N#Cc1nc(-c2ccc(Cl)cc2)oc1NCc1ccco1
    >57 | 2%

Next part.
Each structure is followed by: Prx2 Sm inh | Anthrax LT inh
CC1=C(C(=O)OC(C)C)C(c2cccnc2)n2ncnc2N1 (configuration not stated)
    >57 | 26%
CC(=O)N1[C@H](Cc2ccccc2)C=C[C@]1(C)C(=O)NCc1cc(F)cc(C(F)(F)F)c1
    · | -7%
COc1ccc2c(c1OC)C(=O)OC2CC(=O)c1ccc(N(C)C)cc1 (configuration not stated)
    · | -9%
Clc1ccc(-c2nn3c(C4COc5ccccc5O4)nnc3s2)cc1 (configuration not stated)
    >57 | -8%
Cc1nnc(SCC(=O)Nc2ccc(Br)cn2)[nH]c1=O
    >57 | 6%
COc1nc(OC)nc(N(C)CCO)n1
    · | -2%
COc1ccc(C(=O)Cn2c(=O)c(CCC(=O)O)nn3c4ccccc4nc23)cc1OC
    >57 | 0%
Cc1ccc(C)c(N2CCN(S(=O)(=O)c3ccc4c(c3)oc(=O)n4C)CC2)c1
    >57 | 4%
c1ccc(N2CCN(Cc3nnnn3C3CCCCC3)CC2)cc1
    >57 | -7%
Cc1nc2nc(SCC(=O)C(C)(C)C)[nH]c2cc1Br
    >57 | ?

More compounds:
Each structure is followed by: Prx2 Sm inh | Anthrax LT inh
COc1ccc(S(=O)(=O)Nc2cc(C(=O)NC3CCCCCC3)ccc2N2CCOCC2)cc1
    >57 | ?
CCN1CCn2c1nc(N1CCCCC1)nc2=O
    >57 | 15%
CC1(N)CCC(C(C)(C)N)CC1 (configuration not stated)
    · | -4%
CCOC(=O)c1nnn(CC(=O)Nc2cccc(F)c2)c1C(=O)OCC
    >57 | -9%
COc1ccc(C(=O)N2CCC3(CC2)CN(c2ncccn2)C3)cc1
    >57 | -8%
N#CCSc1nc2c(sc(=S)n2Cc2ccco2)c(=O)n1-c1ccc(F)cc1
    >57 | ?
CCOC(=O)CCN=Cc1c(O)n(-c2ccc(Br)cc2)c(=O)[nH]c1=O
    >57 | 17%
OC1(c2cn(Cc3ccccc3)nn2)CCCCC1
    >57 | -9%
COC(=O)Cn1c(C(=O)N2CCCC2)cc2c1C[C@H]1CN(C(=O)c3ccccc3)[C@@](Cc3ccccc3)(C(=O)OC)[C@@H]21
    >57 | ?
O=C(Nc1cnn(Cc2ccc(Cl)cc2Cl)c1)c1noc2c1CCCC2
    >57 | ?

Next section.
Each structure is followed by: Prx2 Sm inh | Anthrax LT inh
c1ccc2c(c1)-c1cccc3cccc-2c13
    · | ?
CSc1ccccc1C(=O)Nc1cccc(N(C)S(C)(=O)=O)c1
    >57 | -29%
COC(=O)[C@@H]1[C@@H]2C[C@H]3c4[nH]c5ccccc5c4CCN3C[C@@H]2CC[C@@H]1O
    >57&>57&>26&>57&>57&>57&>57&>57 | ?
COc1ccccc1CN1CCN(C(CC(C)C)c2nnnn2Cc2cccs2)CC1 (configuration not stated)
    >57 | -14%
COCCNC(=O)c1nn(-c2cc(OC)cc(OC)c2)c(=O)c2ccccc12
    >57 | ?
CCC(=O)N1c2ccccc2NC2=C(C(=O)CCC2)C1c1ccc(N(C)C)cc1 (configuration not stated)
    >57 | -1%
CCOCCOc1nc2c(c(=O)n(C)c(=O)n2C)n1CCc1ccccc1
    >57 | -13%
OC[C@@H](O)[C@@H](O)[C@@H](O)[C@@H](O)c1nc2ccc(Cl)cc2[nH]1
    >57 | ?
COc1ccc(-c2cc(=O)[nH]c(NCc3ccccc3)n2)cc1
    >57 | 23%
CCCn1c(C)c(C(=O)c2ccc3ccccc3c2)c2ccccc21
    >26 | 13µM*

Carrying on.
Each structure is followed by: Prx2 Sm inh | Anthrax LT inh
CCCCn1ccc(=O)c2c(C(F)(F)F)nccc21
    · | -11%
CN(C)c1ccc(C2N([C@H](C#N)c3ccc(N(C)C)cc3)CCCN2[C@@H](C#N)c2ccc(N(C)C)cc2)cc1 (some centres not stated)
    >57 | ?
Cc1cccc(NC(=O)CSc2nnc(-c3ccccc3C)o2)c1
    >57 | -12%
COC(=O)[C@@]1(Cc2ccc(OC)cc2)[C@H]2c3cc(C(=O)N4CCCC4)n(CCSCCO)c3C[C@H]2CN1C(=O)c1ccccc1
    >57 | ?
Cn1c(=O)c2c(ncn2CCCNC2=CC(C)(C)CC(=O)C2)n(C)c1=O
    >57 | -6%
CCN1C(=O)C(C)S/C1=N\S(=O)(=O)c1ccc(Cl)s1 (configuration not stated)
    >57 | -4%
CCOC(=O)C1CCCN(C2CC(=O)N(c3ccc(C)c(C)c3)C2=O)C1 (configuration not stated)
    >57 | -12%
Cc1ccnc(-n2sc3ccccc3c2=O)n1
    >57 | 0.32µM*
CCOC(=O)C1=C(C)NC(=O)NC1c1ccc(OC(C)C(=O)O)c(OC)c1 (configuration not stated)
    >57 | 7%
O=C(Oc1ccc(-c2cn3c(n2)SCC3)cc1)c1ccccc1
    >57 | ?

(more compounds)
| SMILES | Prx2 Sm inh | Anthrax LT inh |
| --- | --- | --- |
| CC1=C(C(N)=O)C(c2ccc(Cl)cc2)NC(=O)N1 (configuration not stated) | >57 | 4% |
| C=CCn1nnnc1SCC(=O)Nc1ccccc1C(=O)OC | >57 | 6% |
| O=C(NCc1cccs1)C1CCN(S(=O)(=O)c2ccc3c(c2)OCCO3)CC1 | >57 | 0% |
| CN(C)CCNc1nc2c(c(=O)[nH]c(=O)n2C)n1CC(O)COc1ccc(Cl)cc1Cl (configuration not stated) | >57 | · |
| COCCCNC(=O)c1ccc(Cn2c(=O)[nH]c3ccccc3c2=O)cc1 | >57 | ? |
| c1coc(CNc2nc(N3CCCCC3)nc3ccccc23)c1 | >57 | ? |
| CCOC(=O)C1(Cc2ccc(O)cc2)NC(c2ccccc2F)C2C(=O)N(C)C(=O)C21 (configuration not stated) | >57 | -29% |
| CS(=O)(=O)c1ncc(Cl)c(C(=O)Nc2ccc(N3CCOCC3)cc2)n1 | >57 | ? |
| Cc1ccc(NC(=O)CSc2nccc(=O)[nH]2)c(S(=O)(=O)N2CCOCC2)c1 | >57 | 4% |
| c1cc(N2CCCC3(CCNCC3)C2)ccn1 | >57 | -15% |
| CCOc1nc(NCCC2=CCCCC2)nc(N2CCOCC2)n1 | >57 | 9% |
| CC/C(C)=N/O | · | ? |
| O=C(O)C1C2C=CC(C2)C1C(=O)OCC1CCCO1 (configuration not stated) | · | 6% |
| CC(=O)NCCc1c(Cc2ccccc2)[nH]c2ccccc12 | >57 | -10% |
| COc1ccc(OC)c(C2C3=C(N=C4SCC(=O)N42)c2ccccc2CC3)c1 (configuration not stated) | · | ? |
| COc1cccc(Cn2c(=O)c(CCc3ccccc3)nc3cncnc32)c1 | >57 | -14% |
| COc1ccc(N(CC(=O)NC2CCCC2)C(=O)c2ccc(N3CCCCC3)nc2)cc1 | >57 | ? |
| CC1(C)CC(=O)C2=C(C1)NCN(Cc1ccc3c(c1)OCO3)C2 | >57 | 3% |
| Cc1sc2ncnc(NCc3ccco3)c2c1C | · | -1% |
| COc1ccc(S(=O)(=O)Nc2nnc(C(C)(C)C)s2)cc1 | >57 | -2% |
| CCc1ccc(-c2nc(CSCC(=O)NCCCN3CCCC3=O)c(C)o2)cc1 | >57 | 11% |
| O=C(O)c1cc2cc(Cl)ccc2oc1=O | >57 | -8% |
| O=C(C1CCCO1)N1CCN(S(=O)(=O)c2cccc3nsnc23)CC1 (configuration not stated) | >57 | -25% |
| COc1ncc2nc(CCc3ccccc3)c(=O)n(Cc3cccs3)c2n1 | >57 | ? |
| CC(C)n1c(=NC(=O)c2ccco2)c(C#N)cc2c(=O)n3ccccc3cc21 | · | ? |

Next section:
| SMILES | Prx2 Sm inh | Anthrax LT inh |
| --- | --- | --- |
| C=CCn1c(SCC(=O)NC(=O)NCc2ccco2)nc2sc(CC)cc2c1=O | >57 | -9% |
| CCCNC(=O)C1CN(S(=O)(=O)c2ccccc2)CCN1S(=O)(=O)c1ccccc1 (configuration not stated) | ? | -9% |
| COC(=O)C1=C(N)OC(C)=C(C(C)=O)C12C(=O)N(C)c1ccccc12 (configuration not stated) | >57 | -5% |
| Cc1ccc(-c2nnc(SCC(=O)N3CC(C)CC(C)C3)o2)cc1C (configuration not stated) | >57 | -3% |
| CC1Cc2nc(SCC(=O)N3CCCc4ccccc43)n(C)c(=O)c2S1 (configuration not stated) | >57 | 4% |
| COc1cc(CC(=O)OCC(=O)Nc2ccc(S(=O)(=O)N3CCCC3)cc2)cc(OC)c1OC | >57 | 3% |
| CCOC(=O)c1ccc(OC(=O)CCCCCN=C(N)N)cc1 | >57&>57 | ? |
| COc1ccc(C(=O)Cn2nnc(-c3ccccc3F)n2)cc1 | >57 | -5% |
| Cc1cnc(NC(=O)CSc2nnc(CNc3ccc(F)cc3)n2CC2CCCO2)s1 (configuration not stated) | >57 | ? |
| c1ccc(Cn2c(NCc3ccco3)nc3ccccc32)cc1 | >57 | ? |
| Cc1ccc(C)c(OCCCN2CCCC2)c1 | >57 | · |
| COc1cccc(Cn2c(=O)c(-c3ccc(F)c(F)c3)nc3cncnc32)c1 | >57 | ? |
| NC(=S)N/N=C\c1c[nH]c2ccccc12 | >57 | ? |
| Oc1ccc(CN2CCN(Cc3ccccc3)CC2)c2cccnc12 | >57 | ? |
| Cc1ccc(Cn2c(CN(C)Cc3ccccc3)nc3c2c(=O)n(C)c(=O)n3C)cc1 | >57 | -24% |
| Cc1c(C(=O)NCCN2CCOCC2)oc2ccccc12 | >57 | · |
| CCc1ccc(NC(=O)CCN2C(=O)c3cccnc3C2=O)cc1 | >57 | 6% |
| CCc1[nH]nc2c1C(c1cccc(OC(=O)N3CCOCC3)c1)C(C#N)=C(N)O2 (configuration not stated) | >57 | 1% |
| COc1ccc(NC(=O)C2CC(=O)N(C)C(=Nc3ccc4c(c3)OCO4)S2)cc1 (configuration not stated) | >57 | -17% |
| COc1ccccc1NC(=O)CSc1nc2sc(C)c(C)c2c(=O)n1Cc1ccco1 | >57 | ? |
| Cc1ccc(N(C(=O)c2ccc(Br)o2)C2C=CS(=O)(=O)C2)cc1 (configuration not stated) | >57 | -7% |
| O=[N+]([O-])c1ccc([C@@H](Nc2ccccc2)c2ccc3cccnc3c2O)cc1 | >57 | -11%[8 µM] |
| CC1CCN(CCNC(=O)CN(C)S(=O)(=O)c2cccc3nsnc23)CC1 | >57 | -9% |
